EBI2 antag: antagonists of human EBI2 receptor; inhibition, % at 5 µM; AID 651636; EBI2 beta-arrestin recruitment, luminescence, 7a,25-OHC stimulated; 360,000 compounds, 0.81% hits; P32249; in the data active means inhibition above about 38%;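 further: enzyme fragment complementation signal reports receptor beta-arrestin coupling in cells; 0% = agonist plus DMSO wells and 100% = wells without agonist; some results beyond the cut were filed as inactive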
Target sequence (P32249 whole entry, looked up, the tested form may be a part): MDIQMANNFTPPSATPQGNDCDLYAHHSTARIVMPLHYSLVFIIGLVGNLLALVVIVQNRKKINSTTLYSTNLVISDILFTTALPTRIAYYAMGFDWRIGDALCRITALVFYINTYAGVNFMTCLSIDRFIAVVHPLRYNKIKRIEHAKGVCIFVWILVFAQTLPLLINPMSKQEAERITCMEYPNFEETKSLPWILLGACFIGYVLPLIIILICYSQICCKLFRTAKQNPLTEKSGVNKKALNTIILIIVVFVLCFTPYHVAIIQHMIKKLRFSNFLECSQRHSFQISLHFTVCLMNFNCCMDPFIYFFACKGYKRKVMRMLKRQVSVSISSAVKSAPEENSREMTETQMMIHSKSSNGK
APOBEC3G inh: APOBEC3G (human) deaminase inhibition | inhibition, % at 20 µM | recombinant A3G, ssDNA deamination FAM/TAMRA fluorescence | 330,000 compounds, 0.28% hits | Q9HC16;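 active means inhibition of at least 40% at 20 µM, with no more than 30% in the related APOBEC3A deaminase screen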;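 further: plate controls were DMSO wells with A3G for no effect and wells lacking A3G enzyme for full effect; some compounds called inactive have numbers as strong as hits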
A3A deaminase: blocks human APOBEC3A ssDNA deamination; P31941; recombinant A3A, FAM/TAMRA ssDNA deamination fluorescence; inhibition, % at 20 µM; 330,000 compounds, 0.41% hits;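 active means at least 40% inhibition at 20 µM here, with at most 30% in a related deaminase screen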;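 further: plate controls were A3A with DMSO for no effect and wells lacking A3A enzyme for full effect; some results filed as inactive read as strong as hits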
CCR6 antagonist: antagonists of human CCR6 receptor | P51684 | CHO-K1 CCR6 PathHunter beta-arrestin, luminescence, CCL20-stimulated | inhibition, % at 20 µM | 340,000 compounds, 0.49% hits;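 active means compounds whose inhibition of the agonist-driven luminescence signal at 20 µM reaches about 50%, limit read from the data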;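 further: cells stimulated with CCL20 at 14 nM final; plate controls were DMSO with CCL20 for no effect and DMSO without agonist for full effect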
NR3A LBD binder: modulates the human NR3A ligand-binding domain; Tm shift relative to glycine control, % at 25 µM; NR3A LBD differential scanning fluorimetry, Tm shift; 0% = protein alone, 100% = glycine-bound protein; 340,000 compounds, 2.5% hits;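 active means melting temperature shift of at least 10% of the positive control shift, at one fixed dose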
Gli-Sufu antag: Gli-Sufu pathway antagonism. Sufu-KO-LIGHT fibroblasts, Gli luciferase reporter luminescence. inhibition, % at 5 µM. 340,000 compounds, 0.74% hits;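 active means inhibition above about 55%, limit read from the data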;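 further: 0% = DMSO-treated cells and 100% = wells with medium but no cells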
CXCR6 block: inhibitors of human CXCR6 receptor | inhibition, % at 20 µM | O00574 | AID 602244 | CHO-K1 PathHunter CXCR6 beta-arrestin, luminescence | 360,000 compounds, 0.36% hits; in the data active means inhibition above about 34%, passing the limit was not always enough;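 further: antagonist mode with CXCL16 agonist at 10 nM final; 0% = 10 nM CXCL16 with DMSO and 100% = unstimulated wells without agonist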
Active calls of the source: *.

Values in the order – EBI2 antag	APOBEC3G inh	A3A deaminase	CCR6 antagonist	NR3A LBD binder	Gli-Sufu antag	CXCR6 block
(1) Cc1cc2c(c(SCC#N)n1)C(=O)OC2
    -3	0	3	3	0	-19	-6
(2) COC(=O)CNC(=O)C1Cc2ccccc2CN1S(=O)(=O)c1cccs1 (stereo not given)
    15	-5	4	4	0	2	-1
(3) CC(C)CCNC(=O)C1CCN(S(=O)(=O)c2ccc3c(c2)CC(C)N3C(=O)C2CC2)CC1 (stereo not given)
    -2	-3	-3	8	2	8	-4
(4) O=C(Nc1cccc(F)c1)c1ccc2c(c1)OCCO2
    0	-3	0	0	-35	-31	1
(5) Cc1nnsc1C(=O)N/N=C/c1ccccc1Cl
    7	-5	-2	-8	-4	-3	1
(6) Cc1c(N(C)C)c(=O)n(-c2ccccc2)n1C
    -3	-13	-2	-12	0	-2	6
(7) CCCCn1c(=O)nc2n(-c3ccc(C)cc3)c3ccccc3cc-2c1=O
    -2	1	2	24	-3	45	0
(8) CCOC(=O)c1n[nH]c2ccccc12
    -7	-6	-4	-3	2	17	-2
(9) COc1ccccc1C(=O)Nc1ccnn1C1CCN(Cc2cc(C)c(C)cc2C)CC1
    5	-4	-5	-1	2	34	-4

Individual results from the list.
For APOBEC3G inh, cpd 1 has the entry 0
For NR3A LBD binder, cpd 8 has the entry 2
For NR3A LBD binder, cpd 7 has the entry -3

An excerpt from above in order of their number in APOBEC3G inh, lowest first.
| item | SMILES | EBI2 antag | APOBEC3G inh | A3A deaminase | CCR6 antagonist | NR3A LBD binder | CXCR6 block |
| --- | --- | --- | --- | --- | --- | --- | --- |
| 2 | COC(=O)CNC(=O)C1Cc2ccccc2CN1S(=O)(=O)c1cccs1 (stereo not given) | 15 | -5 | 4 | 4 | 0 | -1 |
| 9 | COc1ccccc1C(=O)Nc1ccnn1C1CCN(Cc2cc(C)c(C)cc2C)CC1 | 5 | -4 | -5 | -1 | 2 | -4 |
| 3 | CC(C)CCNC(=O)C1CCN(S(=O)(=O)c2ccc3c(c2)CC(C)N3C(=O)C2CC2)CC1 (stereo not given) | -2 | -3 | -3 | 8 | 2 | -4 |
| 1 | Cc1cc2c(c(SCC#N)n1)C(=O)OC2 | -3 | 0 | 3 | 3 | 0 | -6 |

Pulled one by one from the entries so far:
Values in the order – EBI2 antag	APOBEC3G inh	A3A deaminase	CCR6 antagonist	NR3A LBD binder	Gli-Sufu antag	CXCR6 block
(8) CCOC(=O)c1n[nH]c2ccccc12
    -7	-6	-4	-3	2	17	-2
(6) Cc1c(N(C)C)c(=O)n(-c2ccccc2)n1C
    -3	-13	-2	-12	0	-2	6
(2) COC(=O)CNC(=O)C1Cc2ccccc2CN1S(=O)(=O)c1cccs1 (stereo not given)
    15	-5	4	4	0	2	-1

Screens (PubChem BioAssay)

Only part of the results is shown; count on the stated rates, not on these rows.
